# YopH inh = YopH (Yersinia) phosphatase inhibition; fluorescence Ex485/Em525; inhibition, %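 (about 10 µM by stock and volumes)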; 140,000 tested, 0.16% active; AID 898;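 active means inhibition of 50% or more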;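 further: controls were vehicle for no effect and minimum signal wells for full effect; inactives centre near -20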
# Arbovirus anti = blocks arbovirus infection | inhibition, % at 10 µM | arbovirus infection cell-based antiviral screen | 200,000 tested, 0.37% active | AID 1251;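 active means inhibition from about 30%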;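 further: bluetongue infection of BSR cells; cell survival read as ATP light after 72 h; 0% = infected wells without compound and 100% = uninfected wells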
# RecA intein inh = Mtb RecA intein splicing inhibition. cell-free RecA intein splicing, fluorescence. AID 2221. 290,000 tested, 0.75% active. inhibition, %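 (about 9 µM by stock and volumes)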; in the data active means inhibition above about 30%; inconclusive means no clear call, values can overlap the other calls;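 further: 0% = vehicle wells and 100% = reference inhibitor control wells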
# Target sequence (P9WHJ3 whole entry, looked up): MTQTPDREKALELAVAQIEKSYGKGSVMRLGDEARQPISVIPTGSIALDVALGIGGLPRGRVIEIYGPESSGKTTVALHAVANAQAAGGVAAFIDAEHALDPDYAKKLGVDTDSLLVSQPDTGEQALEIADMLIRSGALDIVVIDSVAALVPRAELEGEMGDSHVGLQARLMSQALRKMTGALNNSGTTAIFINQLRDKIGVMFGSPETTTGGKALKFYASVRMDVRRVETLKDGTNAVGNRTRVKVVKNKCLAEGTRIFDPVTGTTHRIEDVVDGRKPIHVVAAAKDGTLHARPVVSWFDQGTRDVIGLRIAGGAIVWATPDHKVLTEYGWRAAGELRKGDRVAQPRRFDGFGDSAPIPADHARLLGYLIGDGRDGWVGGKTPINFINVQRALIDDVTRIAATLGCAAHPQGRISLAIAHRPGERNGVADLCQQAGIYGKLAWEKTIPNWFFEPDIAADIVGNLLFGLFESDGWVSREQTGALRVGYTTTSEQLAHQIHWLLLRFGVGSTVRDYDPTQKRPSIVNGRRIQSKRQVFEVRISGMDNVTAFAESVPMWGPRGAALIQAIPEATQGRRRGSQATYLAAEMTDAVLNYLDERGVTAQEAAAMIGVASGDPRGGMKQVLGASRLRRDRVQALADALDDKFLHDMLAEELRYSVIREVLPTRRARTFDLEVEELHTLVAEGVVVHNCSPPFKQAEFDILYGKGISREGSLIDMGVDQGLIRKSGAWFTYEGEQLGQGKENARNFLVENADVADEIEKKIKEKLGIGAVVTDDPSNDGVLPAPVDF
# Mtb betalactam = beta-lactam sensitization of Mtb H37Rv | M. tuberculosis H37Rv growth with meropenem, percent inhibition; hits of this screen are not shown here | inhibition, % at 25 µM | 330,000 tested, 0.27% active | AID 434955;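 active means about 74% or more and at least 40 points above the plate without the antibiotic, then above 30% in a dose series; inconclusive means first-round hits that could not be retested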;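 further: growth measured after seven days incubation then overnight dye step; 0% = bacteria only wells and 100% = bacteria with antibiotic; twin plates without the antibiotic show which effects depend on it; some results filed as inactive read as strong as hits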
# Mtb H37Rv = M. tuberculosis H37Rv growth inhibitors, H37Rv strain (AID 1626); M. tuberculosis H37Rv growth inhibition; higher % means a stronger effect; inhibition, % at 10 µM, or IC50 in µM where a hit was titrated; 220,000 tested, 0.95% active;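 active means confirmed in a dose series; inconclusive means inhibition above 80% but not taken into the dose series; inactive means below 80% or under 30% at every dose of the series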;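 further: bacteria incubated seven days before Alamar blue readout; 0% = bacteria only wells and 100% = bacteria with antibiotic wells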
# An asterisk follows results filed as active; ? = inconclusive; . = no result given.
nr	SMILES	YopH inh	Arbovirus anti	RecA intein inh	Mtb betalactam	Mtb H37Rv
1	Cc1c(O)c(CN2CCCCC2)cc2c1oc(=O)c1ccccc12	-30	19	-3.7	98	9%
2	CCOC(=O)N1CCN(C(=O)C2CCN(c3ncnc4c3sc3cccc(F)c34)CC2)CC1	-29	11	-2.1	77	3%
3	N#Cc1ccc(COC(=O)c2ccc3c(=O)[nH]c(CN4CCOCC4)nc3c2)cc1	-20	0	1.7	?	-4%
4	CCOC(=O)C1(Cc2cccc(OC)c2)CCCN(CCO)C1 (centres undefined)	.	.	2.9	2	.
5	CC(=O)NCC(=O)OCC(=O)c1ccc2ccccc2c1	-29	-1	-1.8	11	-7%
6	CCN(CC)S(=O)(=O)c1ccc2[nH]cc(C(=O)NCCN3CCCCC3C)c(=O)c2c1 (centres undefined)	-35	11	.	-1	.
7	COC(=O)c1ccccc1NC(=O)CN1CCC(NC(=O)c2ccccc2C)CC1	-40	83*	-2.5	-26	6%
8	N#Cc1c(-c2ccco2)cc(C2CC2)nc1SCC(=O)c1ccccc1	-49	-12	1.0	2	-7%
9	Cc1cc(=O)[nH]c(SCc2nc3ncccn3c2Br)n1	15	-2	-2.4	-11	-6%
10	O=S(=O)(Nc1ccc(S(=O)(=O)N2CCOCC2)cc1)c1ccc(Br)cc1	.	.	-1.9	-2	.
11	CC12CN3CCN(CC(C3)/C1=N/NC(N)=O)C2	.	.	0.8	-7	-3%
12	Cc1onc(-c2ccc(Cl)cc2Cl)c1-c1csc(COc2ccccc2)n1	.	.	4.8	-9	4%
13	Cc1cc(C)c(C(=O)CN2C(=O)NC3(CCC(C)CC3)C2=O)cc1C (centres undefined)	.	13	-2.0	-4	4%
14	O=C(CN1C(=O)NC2(CCCC2)C1=O)Nc1ccccc1N1CCCCC1	.	.	1.5	-1	.
15	Cc1ccc(-c2cc(C(F)(F)F)nn2-c2ccc(S(N)(=O)=O)cc2)cc1	.	.	-4.0	3	.
16	Cn1c(COc2ccccc2)nc2ccccc21	.	.	-2.3	3	.
17	Cc1cc(=O)oc2cc(OCc3ccc(C(=O)OCC(=O)Nc4ccc(N(C)C)cc4)cc3)ccc12	.	5	5.0	.	8%
18	CC1CC(C)CN(C(=S)Nc2ccc3nc4n(c(=O)c3c2)CCCCC4)C1 (centres undefined)	-18	2	-0.1	23	7%
19	O=C(NC1CC1)c1ccc(CSCc2ccccc2Cl)o1	.	.	0.9	-1	.
20	COc1ccc(-n2c(Cc3cccn3C)nnc2SCC(=O)Nc2ccc(F)cc2)cc1	-15	14	7.9	5	-2%
21	CCc1nnc(NC(=O)CSc2nnc(CNc3ccc(OC)cc3)n2C)s1	-5	8	-1.9	0	-1%
22	CCSc1nnc(NC(=O)CSc2c(Cl)cccc2Cl)s1	-125	13	2.1	-2	-5%
23	Cc1c(Cl)cccc1NC(CC(=O)c1ccccc1)C(=O)O (centres undefined)	-41	1	2.1	44	1%
24	CC(=O)Nc1ccc(S(=O)(=O)Nc2ccc3c(c2)OCCO3)cc1	.	10	-0.6	-13	0%
25	O=C(COC(=O)c1ccncc1)Nc1cc(Cl)ccc1Cl	-9	7	1.1	-5	-7%
26	CN(C)/C=C(\C#N)C(=O)c1cccnc1Oc1cccc(F)c1	-21	9	-0.4	3	-11%
27	C/C(=N/OC(=O)c1c(-c2ccccc2Cl)noc1C)c1cnccn1	.	7	1.3	4	10%
28	Cc1oc2cc(OC(C)C(=O)O)ccc2c(=O)c1Oc1ccccc1 (centres undefined)	-36	3	-1.2	-2	-10%
29	COc1cccc(NC(=O)CN2CCN(CC(=O)Nc3ccc(F)cc3)CC2)c1	.	.	0.8	-8	.
30	O=C1CCCC(=O)C1=C1SCCCS1	-21	-12	-4.0	5	1%
31	Cc1ccc(C(=O)OCC(=O)N2CC(C)OC(C)C2)cc1 (centres undefined)	.	.	-3.6	-1	.
32	OCc1cccc[n+]1CCc1ccccc1	.	.	-3.6	1	.
33	O=[N+]([O-])c1cccc2ccc(/C=C/c3ccc(F)cc3)nc12	-19	-2	0.8	-1	9%
34	CCOc1cc(/C=N/O)cc(Br)c1OCC(=O)NCc1ccccc1	-24	4	-0.7	6	1%
35	Cc1nc2ncnn2c(N2CCN(C(=O)Cc3cccs3)CC2)c1C	-26	4	1.9	3	-9%
36	CCCc1cc(=O)oc2c(C)c(OCC(=O)N3CCC(C(=O)O)(c4ccccc4)CC3)ccc12	.	.	13	0	.
37	CCC(OC(=O)CN1C(=O)C(=O)c2ccccc21)C(=O)Nc1ccc(S(N)(=O)=O)cc1 (centres undefined)	.	0	-0.1	-6	-3%
38	Cc1ccc(NC(=O)C2CCN(S(=O)(=O)c3ccc4c(c3)OCCO4)CC2)nc1	.	.	0.6	-18	.
39	COCCn1c(C)cc(C(=O)CSc2ccc(NC(C)=O)cc2)c1C	-36	1	-2.7	-12	5%
40	Cc1nn(C)c(Oc2ccccc2)c1CCNS(=O)(=O)c1ccccc1	-39	-3	4.6	?	0%
41	CCOc1ccc(/C(O)=C2/C(=O)C(=O)N(CCOCCO)C2c2ccccc2)cc1 (centres undefined)	-35	-6	-0.9	7	-8%
42	CCOC(=O)N1CCN(CC(=O)Nc2c(C(=O)OC)[nH]c3ccccc23)CC1	-30	-8	2.7	-4	-4%
43	CCCCn1c(=O)nc2n(-c3ccc(Cl)cc3)c3ccccc3cc-2c1=O	-29	11	-5.6	-7	-3%
44	Cn1cccc1/C=N/NC(=O)C12CC3CC(CC(C3)C1)C2	-33	5	-3.1	3	0%
45	COc1ccccc1Cn1c(-c2ccccc2OC)nc2ccccc21	-24	-23	-1.7	-4	3%
46	CCC(C)(C)NC(=O)C(c1ccc(C)cc1)N(Cc1ccco1)C(=O)CCC(=O)Nc1nccs1 (centres undefined)	-9	-6	-1.2	2	7%
47	CC(C)(C)c1nc2sc3c(c2c(=O)o1)CCCC3	8	12	4.8	99	46%
48	O=C(NCc1ccco1)c1ccc(=O)[nH]n1	-21	10	5.1	11	-15%
49	CCCOc1ccc(/C=C/C(=O)N2CCOCC2)cc1	.	.	-0.6	-20	.
50	CCN(CC)S(=O)(=O)c1ccc(C(=O)NC(=S)N(CCC#N)Cc2cccnc2)cc1	.	7	-4.3	-5	4%
51	CCN(CC)S(=O)(=O)c1ccc(N2CCCC2)c(NC(=O)Cc2ccccc2)c1	.	.	2.3	-5	-8%
52	O=C(NCCCN1CCOCC1)C(=O)N/N=C/c1c(Cl)cccc1Cl	.	15	-0.4	-6	10%
53	Cc1cnc(C)c(N2CCC(C(=O)NCc3cccs3)CC2)n1	-42	-11	-1.4	-1	-2%
54	CC(C)(C)NS(=O)(=O)c1cc(C(=O)Nc2sccc2C#N)ccc1Cl	-1	12	-0.4	-4	9%
55	O=C(Nc1ncccc1O)c1cc2ccccc2o1	.	.	2.9	-9	.
56	COc1cccc(OCc2nnc(SCC(=O)NNC(=O)C3CCCCC3)n2C)c1	.	5	-0.8	-5	-4%
57	CC(C)(C)C(=O)/C=C(\N)c1ccccn1	9	3	1.8	1	4%
58	Cc1ccc2c(c1)N(C(=O)CCC(=O)Nc1ccccc1Cl)CC(C)O2 (centres undefined)	.	.	3.3	-5	.
59	CCC(=O)Nc1nc2ccc(NC(C)=O)cc2s1	-37	-2	.	1	-2%
60	COc1cccc(OCC(=O)O/N=C(\N)c2ccncc2)c1	.	.	0.4	2	.

# Results in Arbovirus anti and Mtb H37Rv (five entries from above):
cpd | smiles | Arbovirus anti | Mtb H37Rv
20 | COc1ccc(-n2c(Cc3cccn3C)nnc2SCC(=O)Nc2ccc(F)cc2)cc1 | 14 | -2%
21 | CCc1nnc(NC(=O)CSc2nnc(CNc3ccc(OC)cc3)n2C)s1 | 8 | -1%
22 | CCSc1nnc(NC(=O)CSc2c(Cl)cccc2Cl)s1 | 13 | -5%
23 | Cc1c(Cl)cccc1NC(CC(=O)c1ccccc1)C(=O)O (centres undefined) | 1 | 1%
24 | CC(=O)Nc1ccc(S(=O)(=O)Nc2ccc3c(c2)OCCO3)cc1 | 10 | 0%

# Next results.
nr	SMILES	YopH inh	Arbovirus anti	RecA intein inh	Mtb betalactam	Mtb H37Rv
61	CC(C)c1onc(C(=O)Nc2cccc(Cl)c2)c1[N+](=O)[O-]	.	4	5.1	1	0%
62	O=c1[nH]nc(CNc2cccc(C(F)(F)F)c2)c2ccccc12	.	7	0.8	25	27%
63	O=C(COc1ccccc1)NCCc1nc2ccccc2[nH]1	-30	14	-1.9	-2	-7%
64	CC1CN(Cc2nc3c(c(=O)n(C)c(=O)n3C)n2CCCc2ccccc2)CC(C)O1 (centres undefined)	-23	.	-0.5	13	-3%
65	Cc1ccc2c(c1)N(C(=O)CCC(=O)N1CCOCC1)CC(C)O2 (centres undefined)	.	.	-0.1	1	.
66	CCCS(=O)(=O)c1c(S(=O)(=O)CCC)c2c3ccccc3ccn2c1C(=O)OC	-18	-8	5.4	-1	-16%
67	COC(=O)CCNc1n[nH]c(=O)[nH]c1=O	.	15	0.5	-2	-4%
68	CCOc1ccccc1NC(=O)C1CCN(S(=O)(=O)c2c(C)noc2C)CC1	3	2	-0.1	-2	-8%
69	O=C(O)c1ccc(N=Nc2c(O)ccc3ncccc23)cc1	.	.	9.2	0	.
70	CCOC(=O)CN(C(=O)COc1nc(C)cc(C)c1C#N)c1cccc(Cl)c1	.	.	3.8	-1	4%
71	Cc1ccc(-c2nnc(SCC(N)=O)nc2-c2ccc(C)cc2)cc1	.	.	0.8	5	.
72	Cc1cc(C)n(CC2CC(=O)N(c3ccc(Cl)cc3)C2=O)n1 (centres undefined)	.	.	-2.6	-12	-11%
73	Cc1cc(C)c(C#N)c(SCc2ccc(F)cc2)n1	.	-4	3.5	0	5%
74	Nc1cc(C(=O)OCC(=O)N2CCCC2=O)ccc1Cl	.	.	0.2	0	.
75	O=C(CN(Cc1ccc(Cl)cc1)C(=O)c1csnn1)NCc1ccccc1	.	.	0.9	5	.
76	O=C(O)c1ccc(N/N=C2/CCCc3ccccc32)cc1	.	.	-3.0	14	-1%
77	Cc1cc(NC(=O)c2cc(C)on2)n(-c2ccccc2)n1	-30	-2	0.3	0	2%
78	COc1ccccc1N1CCN(C(=O)c2ccc(Cl)c(S(=O)(=O)N3CCCC3)c2)CC1	.	5	3.3	-4	4%
79	CC1CCCC(C)N1c1nnc(NC(=O)c2cc(-c3ccc(Br)cc3)on2)s1 (centres undefined)	-27	12	-0.7	12	.
80	Cn1c(=O)c(S(=O)C2CCCCC2)c(O)c2ccccc21 (centres undefined)	.	.	0.1	95	.

# Copied from the list:
# CCC(OC(=O)CN1C(=O)C(=O)c2ccccc21)C(=O)Nc1ccc(S(N)(=O)=O)cc1 (centres undefined) | RecA intein inh = -0.1
# CC12CN3CCN(CC(C3)/C1=N/NC(N)=O)C2 | Mtb betalactam = -7
# O=C(COC(=O)c1ccncc1)Nc1cc(Cl)ccc1Cl | YopH inh = -9
# CCOc1cc(/C=N/O)cc(Br)c1OCC(=O)NCc1ccccc1 | Mtb H37Rv = 1%

# More entries
nr	SMILES	YopH inh	Arbovirus anti	RecA intein inh	Mtb betalactam	Mtb H37Rv
81	CCOC(Cn1c(-c2ccc(OC)cc2)nc2ccccc21)OCC	-18	4	-3.2	0	13%
82	NS(=O)(=O)c1ccc(NC(=S)N2CCN(c3ccc(Cl)c(Cl)c3)CC2)cc1	-20	2	5.7	10	3%
83	Cc1cc(C)cc(OCC(=O)Nc2ccc(N3CCN(C(=O)c4ccco4)CC3)cc2)c1	-16	-12	0.5	-3	24%
84	Cc1ccc(-c2nnc(SCc3nc(N)nc(Nc4ccccc4C)n3)n2N)cc1	-3	0	2.5	-5	.
85	O=[N+]([O-])c1ccc(N(c2ccccc2)c2ccccc2)cc1	14	1	-38	0	-3%
86	CCCCC[n+]1ccn(C2=C([O-])c3ccccc3C(=O)/C2=N\S(=O)(=O)c2ccccc2)c1	-5	-18	5.9	3	-10%
87	Cc1ccc(S(=O)(=O)/C(=C/Cl)NC(=O)c2ccccc2)cc1	-32	0	2.9	50	2%
88	O=C(NCc1ccc2c(c1)OCO2)c1ccc2c(c1)N(Cc1c(F)cccc1Cl)C(=O)CS2	-11	4	-1.8	3	6%
89	CC(C)(C)C(=O)Nc1nnc(SCC(=O)NCc2ccco2)s1	-28	-6	0.4	0	-7%
90	COc1cccc(C(C)NC(=O)Nc2ccccc2Cl)c1 (centres undefined)	.	3	1.8	-7	1%
91	CC(=O)Cc1ccccc1OCC(=O)O	-31	3	-2.1	-17	-3%
92	Cc1ccc2nc(-c3ccccn3)c(NC3CCCC3)n2c1	.	-27	15	99	?
93	Cc1c(CC(=O)NCCC(=O)O)c(=O)oc2cc3oc4c(c3cc12)CCCC4	.	.	-4.9	-14	.
94	CCc1c(C(=O)NC2CCCc3ccccc32)[nH]c(C)c1C(C)=O (centres undefined)	.	.	0.6	-2	.
95	O=C(O)c1cc2cc(Oc3ccccc3)ccc2[nH]1	.	.	-0.1	3	.
96	CCN(c1ccccc1)S(=O)(=O)c1ccc(OC)c(NC(=O)CN(C)C)c1	.	-3	5.7	-6	1%

# Screening results (PubChem)

# A portion of the library, so the mix of outcomes need not match the whole.
